RE007 growth inh – qHTS Assay for Inhibitors of the HIV-1 protein Vpr; Potency, µM (series often up to 92.2 µM), for inactives: top-dose activity change, negative = less growth; 0.21% of 360,000 active; S. pombe RE007 Vpr strain, BacTiter-Glo ATP luminescence, 24 h; control for the full effect not named in the record; AID 651644, 2012; active = well fitted falling curve with a large enough effect; inconclusive = small, poorly fitted or top-dose-only effect; inactive = no such curve, though single readings can be large or run the other way;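 note: % is set by controls: 0 for no effect and ±100 for the full control effect; nearly all actives have a fitted effect of over 50% in size; the assay follows cell death caused by Vpr and the record does not say whether a fall means rescue or toxicity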
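Fission yeast RE007 carrying one integrated HIV-1 vpr copy, seeded at OD 0.01 in PMG+AL medium with 23 nL pinned compound. Grown 24 h at 30 degrees; viability read by BacTiter-Glo luminescence after 5 min.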
StopGo reporter – High Throughput Screening for Foot and Mouth Disease Virus Antivirals; AID 1159524, 2015; 1.2% of 410,000 active; human cells with a luciferase reporter of 2A StopGo recoding; control for the full effect not named in the record; Potency, µM (titrated, usually from 57.9 µM), inactives show at the highest dose signal change, negative = less light; active = well fitted falling curve with a large enough effect; inconclusive = small, poorly fitted or top-dose-only effect; inactive = no such curve, though single readings can be large or run the other way; tested in HEK293T cells; note: % is set by controls: 0 for no effect and ±100 for the full control effect; nearly all actives have a fitted effect of over 45% in size; luciferase light after 4 h
SARS PLP yeast – qHTS of Yeast-based Assay for SARS-CoV PLP; 0.19% of 330,000 active; Potency, µM (titrated, usually from 32.9 µM), for the others: at the top dose activity, positive = growth rescue; AID 485353, 2010; S. cerevisiae expressing SARS-CoV PLpro, growth rescue; control for the full effect not named in the record; active means well fitted rising curve with a large enough effect; inconclusive means small, poorly fitted or top-dose-only effect; inactive means no such curve, though single readings can be large or run the other way; note: 0% is about no effect; nearly all actives have a fitted effect of over 55% in size; growth read by luminescence after 48 h
NS1 inh – qHTS Assay for Inhibitors of Influenza NS1 Protein Function | S. cerevisiae slowed by influenza A NS1, growth recovery by OD600 | Potency, µM (doses to about 46.1 µM), without a hit: at the top dose activity, positive = more growth | 0.4% of 270,000 active; active means well fitted rising curve with a large enough effect; inconclusive means small, poorly fitted or top-dose-only effect; inactive means no such curve, though single readings can be large or run the other way; note: nearly all actives have a fitted effect of over 50% in size
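Recovery from NS1-induced slow growth read by OD600 in budding yeast switched to galactose assay medium (pH 6.0, -URA) at 1:100 dilution. Compound 23 nl per well; the matching strain lacking NS1 serves as control.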
Lassa entry inh – qHTS for Inhibitors of binding or entry into cells for Lassa Virus; Lassa virus pseudotype entry inhibition, cell reporter; control for the full effect not named in the record; Potency, µM (series often up to 37.9 µM), for inactives: at the highest dose activity change, negative = inhibition, actives largely listed as inhibitors; 1.2% of 300,000 active; active means well fitted inhibition curve with a large enough effect; inconclusive means small, poorly fitted or top-dose-only effect, or effect the other way; inactive means flat fitted curve, though single readings scatter; tested in HEK293 cells; note: % is set by controls: 0 for no effect and ±100 for the full control effect; nearly all actives have a fitted effect of over 50% in size; luciferase read-out
MARV entry inh – qHTS for inhibitors of binding or entry into cells for Marburg Virus; AID 540276, 2011; Potency, µM (series often up to 37.8 µM), without a hit: at the highest dose activity change, negative = inhibition, usual class: inhibitors; 1.8% of 300,000 active; Marburg virus pseudotyped entry inhibition, cell reporter; control for the full effect not named in the record; about a third of the inactives were read at about 46 µM; active = well fitted inhibition curve with a large enough effect; inconclusive = small, poorly fitted or top-dose-only effect, or effect the other way; inactive = flat fitted curve, though single readings scatter; tested in HEK293 cells; about a fifth of its hits are not listed in these tables; note: % is set by controls: 0 for no effect and ±100 for the full control effect; luciferase read-out
Cruzain inh noDet – qHTS Assay for Promiscuous and Specific Inhibitors of Cruzain (without detergent); Cruzipain (Trypanosoma cruzi), P25779; purified cruzain, Z-FR-AMC fluorescence, no detergent; Potency, µM, for the others: max response, negative = inhibition, most hits filed as inhibitors; 2.3% of 200,000 active; AID 1476, 2009;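 note: plate controls were enzyme without inhibitor for no effect and buffer without enzyme for full effect; nearly all actives have a fitted effect of over 40% in size; top concentration of the series not given in the record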
Target sequence (P25779 123-467 limits assumed): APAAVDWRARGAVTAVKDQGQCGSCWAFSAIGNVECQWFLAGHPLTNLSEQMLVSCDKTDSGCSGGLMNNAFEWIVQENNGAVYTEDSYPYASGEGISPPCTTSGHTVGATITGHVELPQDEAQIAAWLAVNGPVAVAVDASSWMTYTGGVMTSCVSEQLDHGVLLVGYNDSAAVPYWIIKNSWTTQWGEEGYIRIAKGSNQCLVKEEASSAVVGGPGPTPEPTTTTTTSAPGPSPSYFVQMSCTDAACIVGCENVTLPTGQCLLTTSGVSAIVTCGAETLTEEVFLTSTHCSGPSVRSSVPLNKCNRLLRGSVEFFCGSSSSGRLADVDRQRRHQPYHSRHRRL
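Detergent-free condition (0.00005% Triton X-100) in acetate buffer pH 5.5 with DTT. 1.5 nM enzyme and compound were pre-mixed 15 min, then 2 uM Z-FR-AMC substrate added; reaction progress from fluorescence change between first and third reads (60 s).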
Cruzain Triton – qHTS Assay for Promiscuous and Specific Inhibitors of Cruzain (with detergent); AID 1478, 2009; 0.43% of 200,000 active; Cruzipain (Trypanosoma cruzi), P25779; purified cruzain, Z-FR-AMC fluorescence, 0.01% Triton; Potency, µM, for inactives: max response, negative = inhibition, hits mostly inhibitors;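 note: plate controls were neutral wells for no effect and buffer without enzyme for full effect; nearly all actives have a fitted effect of over 40% in size; top concentration of the series not given in the record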
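Read-out: AMC fluorescence (360 nm excitation, 450 nm emission), four reads over 2 min, first-to-third difference used. Conditions: cruzain 1.5 nM, Z-FR-AMC 2 uM, pH 5.5 acetate, 5 mM DTT, 0.01% Triton X-100.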
Starred values were filed as active, the others as inactive; ? = inconclusive; . = not tested or not shown; & = joins results of further samples; [ ] = another dose, or the depositor's remark. Unless noted, calls come from the whole dose curve; as a rule, active = well fitted curve in the direction sought with a large enough effect; inconclusive = small, poorly fitted or top-dose-only effect, or another doubt; inactive = no such curve, though single readings can be large; an effect the other way counts as inactive or inconclusive. Potency is the fitted concentration of half-maximal effect.

Values run as follows: RE007 growth inh, StopGo reporter, SARS PLP yeast, NS1 inh, Lassa entry inh, MARV entry inh, Cruzain inh noDet, Cruzain Triton
O=C(Nc1ccc2c(c1)OCCO2)c1ccc(Br)s1
  11%, ?, -25%, -18%, 5.6µM*, 7.9µM*, 2%, -9.4%
CCCNC(=O)Nc1ccsc1C(=O)OC
  0%, 1%, 0%, ., 1%[46.1 µM], 6%[46.1 µM], ., .
O=C(c1cc(-c2cccc(O)c2)on1)N1CCc2ccccc2C1
  4%, 54%[activator], -15%, -205%, ., ., -9%, -12%
CN(C)C(=O)c1ccc(NC(=O)c2ccccc2-c2ccccc2)cc1
  18%, 28%, 1%, 3%, ?, 1%[46.1 µM], ., .
COc1ccc(N2CCN(c3cc(C)nc4ccc(OC)cc34)CC2)cc1
  -15%, ?, 1%, -9%, ?, ?, ., .
CCOc1ccc(NC(=O)CSc2nccn(-c3ccc4c(c3)OCCO4)c2=O)cc1
  6%, -18%, 3%, ., -5%, 0%, ., .
Cc1cc(C)n(CC(O)Cn2c(C)c(C)c3ccccc32)n1 (stereo not drawn)
  12%, -11%, -6%, 2%, 0%, ?, 1%, 6.9%
Cc1ccc(N2C(=O)C(Cl)=C(N3CCN(C)CC3)C2=O)c(C)c1
  3%, -7%, -1%, 9%, 4%, 22%, ?, -26%
CCc1ccccc1NC(=O)/C(=C/c1ccco1)c1ccccc1
  -8%, ?, -20%, -12%, 16µM*, ?, 2%, -7.1%
Cc1ccc2c(C)ccc(O)c2n1
  -7%, -9%, 6%, 5%, ?, ?, 0%, 2.4%
O=C(COC(=O)c1ccncc1)NCc1ccccc1
  2%, -12%, 1%, -1%, 6%, 1%, 2%, 3.9%
CC1(C)CC(=O)C(C(C2=C(O)CC(C)(C)CC2=O)c2cccnc2)C(=O)C1 (stereo not drawn)
  -10%, -20%, 0%, 2%, -5%, 0%, 0%, 1.7%
CCOC(=O)c1sc2ncnc(Nc3cccc(C(=O)O)c3)c2c1C
  10%, -12%, 29%, -2%, ., ., ., .
COc1ccc(CCNC(=O)C2CC3Cn4c(nc5cc(C)c(C)cc54)C3N2C)cc1 (stereo not drawn)
  -25%, -12%, -3%, 1%, ., ., ., .
CCN(CC(=O)NCc1ccc(Cl)cc1)C(=O)Cc1ccccc1[N+](=O)[O-]
  -2%, -8%, 0%, 10%, -32%[46.1 µM], -7%[46.1 µM], ., .
COc1cc(C(C[N+](=O)[O-])c2c(-c3ccccc3)cc3ccccn23)cc(OC)c1OC (stereo not drawn)
  -22%, -21%, -10%, 29%, -16%, ?, -3%, -2.1%
O=Cc1ccc(-n2cncn2)cc1
  -4%, 1%, 4%, -5%, -3%, ?, ., .
CCN(CC)C(=O)CSc1nnc(-c2cc(-c3ccc(Cl)cc3)nc3ccccc23)o1
  3%, -22%, -8%, 5%, 0%, ?, ?, -9.9%
CCOC(=O)c1c(Nc2ccc(C)cc2)nnc(-c2ccccc2)c1-c1ccccc1
  ., 0%, ., ., -14%[46.1 µM], -3%[46.1 µM], -27%, -8.0%
CN1CCN(c2ccc(S(=O)(=O)N3CCCCC3)cc2NC(=O)c2ccc3ccccc3c2)CC1
  8%, ?, -1%, 7%, 6%, ?, -1%, 0.4%
CCOc1cc(CNn2c(C)nnc2SCC(=O)NC(C)(C)C)ccc1OCC(=O)NC(C)(C)C
  -12%, ?, 1%, 5%, -3%, 8%[46.1 µM], ., .
Cc1ccc(C2CC(c3cccc(C)c3)n3nc(N)nc3N2)cc1 (stereo not drawn)
  -15%, ?, -7%, 3%, -5%, -9%, -16%, -1.9%
Oc1ccc(-c2csc(Nc3ccccn3)n2)cc1
  -10%, 17%, -14%, -42%, 15%[46.1 µM], ?, ., .
COc1cccc(NC(=O)CCCN2C(=O)C3CC=CCC3C2=O)c1 (stereo not drawn)
  -8%, 16%, 1%, 9%, -29%[46.1 µM], 0%[46.1 µM], ., .
CC12CCC(=O)C=C1CC(O)C1C2CCC2(C)C1CCC2(C)O (stereo not drawn)
  3%, -6%, ., ., 3%[46.1 µM], -5%[46.1 µM], ., .
Cc1nc(SCC(=O)N2CCOCC2)c2c3c(sc2n1)CCC3
  -6%, ?, 1%, ., ?, ?, ., .
Nc1ccc(N2CCOCC2)cc1C(F)(F)F
  -15%, 10%, 0%, 2%, 5%, ?, ., .
O=S(=O)(c1ccccc1)c1nnn2c1nc(Nc1ccccc1)c1cc(Cl)ccc12
  ., 0%, ., ., ., 8%[46.1 µM], 7%, 0.5%
COc1ccccc1N1CCN(/N=C/c2cccc(Cl)c2)CC1
  ?, 37%[activator], 7%, -13%, 0%, ?, ., .
Cc1cc(=O)n2c(sc3ccccc32)c1C#N
  2%, 0%, -1%, ., 4%, 10%[46.1 µM], ., .
CC(C)(C)C(=O)Nc1cccc(S(=O)(=O)NC2=NCCC2)c1
  -15%, -2%, -6%, ., ?, 19%, ., .
COc1cccc(/C=N\NC(=O)C2=NNC(=O)C2C)c1O (stereo not drawn)
  -16%, 13%, 7%, 10%, ?, -26%, 15%, -7.9%
O=C(OCCOCCN=C1NS(=O)(=O)c2ccccc21)c1ccc(F)cc1
  5%, -1%, 2%, -4%, 28%[46.1 µM], 21%[46.1 µM], ., .
NS(=O)(=O)c1ccc(CCNC(=O)c2ccc3c(c2)OCO3)cc1
  5%, 1%, 0%, 13%, 1%[46.1 µM], -2%[46.1 µM], ., .
COc1cccc(NC(=O)COc2cccc(-n3cnnn3)c2)c1
  0%, 0%, 1%, -1%, ., ., ., .
c1ccc(C[n+]2cccc(-c3ccccc3)c2)cc1
  -4%, -28%, 2%, 9%, ?, -4%, -7%, 1.0%
CC1CCc2sc(C(=O)NNC(=O)c3ccncc3)cc2C1 (stereo not drawn)
  -15%, -7%, -8%, ., 7%, 2%, ., .
O=C(CCc1c[nH]c2ccccc12)NCC1CCCO1 (stereo not drawn)
  3%, 10%, 8%, 5%, 7%, 9%, 2%, 3.3%
Cc1ccccc1-c1nc(Cc2ccc(Cl)cc2)no1
  24%, 25%, -6%, -17%, 25%, 22%, -13%, -1.4%
CC(C)CCNC(=O)c1cn(C)c2ccc(S(=O)(=O)N3CCOCC3)cc2c1=O
  ., -3%, ., ., 18%[46.1 µM], 26%[46.1 µM], -5%, -2.4%
CCOC(=O)c1c(-n2c(C)cc(C=C3C(=O)NC(=S)NC3=O)c2C)sc2c1CCCC2
  -13%, 10µM*, -15%, -19%, ., 5%, ?, -11%
CCN(CC)S(=O)(=O)N1CCC(C(=O)NC(C)CCc2ccccc2)CC1 (stereo not drawn)
  -1%, 1%, 2%, -9%, -2%, 14%, 2%, 3.1%
CCOc1ccc(OCCC(=O)NNC(=O)c2ccccc2Cl)cc1
  23%, 4%, -6%, ., 7%, ?, ., .
CC1=CC(=O)C(C(C)C)=C/C1=N/OS(=O)(=O)c1ccccc1
  ?, 25µM*, -5%, -101%, ., ., ., .
COc1ccc(CCNc2ccc(S(N)(=O)=O)cn2)cc1
  25%, 26%, -2%, -42%, 6%, 6%[46.1 µM], ., .
Cc1ccc(-c2nn3c(C)nnc3c3ccccc23)cc1S(=O)(=O)NCc1ccco1
  -16%, ., 2%, -41%, ?, -26%, -16%, -7.5%
CN(c1ccc(C(=O)NCc2ccccc2)cc1)S(C)(=O)=O
  -5%, ., 2%, 11%, 7%, 3%, 0%, 2.5%
O=S(=O)(c1ccc(Cl)s1)N1CCN(c2ncccn2)CC1
  12%, ., 0%, 0%, 1%, -23%, 2%, -1.7%
Cn1c(N)c(C(=O)COC(=O)C2(c3ccc(F)cc3)CCCC2)c(=O)n(C)c1=O
  14%, ?, -6%, -33%, -9%, -22%, ?, -4.3%
O=C(NCCc1ccccc1)c1cnc2sc(N3CCCCCC3)nn2c1=O
  ., ?, ., ., 30%[46.1 µM], ., 0%, -1.2%
COc1ccc(Cc2nnc(SCC(=O)N3CCCC3)o2)cc1
  -4%, -8%, 1%, 4%, ., ., ., .
Cc1ccnc(N2C(=O)C3C4CC(C(Br)C4Br)C3C2=O)c1 (stereo not drawn)
  3%, -9%, -4%, 22%, 1%, ?, -11%, -3.0%
COc1ccc(C(=O)NCc2nnc(SCC(=O)c3ccccc3)o2)cc1
  2%, 25%, -1%, -5%, ?, ?, ., .
CC(C)Sc1nc2c(cnn2-c2ccc(Cl)cc2)c(=O)[nH]1
  -5%, -8%, 0%, 3%, 0%, -17%[46.1 µM], ., .
COC(=O)c1cc(Cl)c(NC(=O)Cc2ccccc2)cc1OC
  -15%, -8%, -1%, -5%, ?, -3%, ., .
O=C(Nc1cccc2ccccc12)NC1CCCCC1
  -4%, 66%[activator], -2%, 2%, 14%, -3%, ., .
Cc1nn(-c2ccccc2)c2sc(C(=O)N3CCc4ccccc4C3)cc12
  6%, ., -14%, 9%, -5%, ?, -19%, -2.8%
CS(=O)(=O)N(CC(=O)N1CCN(Cc2ccccc2)CC1)c1cccc(Cl)c1
  2%, -23%, 1%, 1%, ., ., ., .
COc1ccc(C(=O)OCC(=O)NC2CCCCCC2)c(OC)c1
  0%, 6%, 0%, ., ?, 9%, ., .
O=[N+]([O-])c1cccc(-c2cnc3ccccc3n2)c1
  -14%, 0%, 0%, 3%, ., ., ., .
CCN(CC)c1ncnc2c1ncn2Cc1c(Cl)cccc1Cl
  -20%, -17%, -4%, -3%, ?, ?, 6%, -6.3%
COc1ccc(C(=O)N/C(N)=N/c2nc3ccccc3o2)cc1
  2%, -2%, -5%, -1%, -20%, -28%&-28%[46.1 µM], -20%, -4.2%

Assay outcomes deposited in PubChem by National Center for Advancing Translational Sciences (NCATS).
